Insulin prom inh = TRM-6 insulin promoter activity inhibition | TRM-6 cells (human fetal islet line), insulin promoter-eGFP reporter, imaging; reporter expression induced with tamoxifen | inhibition, % at 2 µM | 0.9% of 130,000 active;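 active = inhibition above the mean plus 3 SD, with well images judged a real hit on visual review, cut at about 60% in these data, passing the limit was not always enough; inconclusive = inhibition over the cutoff but images rejected on review; inactive = inhibition not above the cutoff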
GALR2 ag = agonists of human galanin receptor 2 (GALR2); O43603; GALR2-expressing cells, agonist activation read-out; activation, %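 (tested at 5 µM)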; 0.48% of 140,000 active; AID 803;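 active = above mean plus 3 SD of all compounds, about 5% in these data, not always enough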;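 note: 0% = vehicle buffer wells and 100% = reference agonist at full effect; tested in CHO reporter cells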
Target sequence (O43603 whole entry, looked up): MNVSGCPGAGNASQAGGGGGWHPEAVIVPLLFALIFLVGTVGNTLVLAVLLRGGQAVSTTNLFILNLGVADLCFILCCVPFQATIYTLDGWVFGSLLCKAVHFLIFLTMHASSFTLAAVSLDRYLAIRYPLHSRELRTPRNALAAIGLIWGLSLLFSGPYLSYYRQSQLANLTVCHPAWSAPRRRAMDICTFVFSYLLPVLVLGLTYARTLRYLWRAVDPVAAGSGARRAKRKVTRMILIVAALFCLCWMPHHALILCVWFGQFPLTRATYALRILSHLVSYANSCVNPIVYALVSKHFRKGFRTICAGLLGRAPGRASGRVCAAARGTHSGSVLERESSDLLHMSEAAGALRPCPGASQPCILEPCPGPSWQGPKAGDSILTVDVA
PKD1 inh = inhibitors of human PKD1 kinase; 0.056% of 200,000 active; inhibition, %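 (about 10 µM by stock and volumes)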; PKD1 kinase fluorescence polarization assay; Q15139; AID 797;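 active = inhibition of 50% or more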;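 note: controls were vehicle for no effect and a reference inhibitor for full effect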
RGS16-Gao HTS = modulates binding between human RGS16 and Galphao | bead-based flow cytometry RGS16-Galphao binding, fluorescence; actives lie on both sides | binding response (% of control), % at 10 µM | 0.38% of 220,000 active | AID 1441;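 active = below 25% or above 175%, edge rows of some plates excepted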;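 note: Galphao activated by GDP with aluminum fluoride before binding; 100% = wells without compound and 0% = beads without RGS; some results beyond the cut were filed as inactive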
Target sequence (O15492 whole entry, looked up): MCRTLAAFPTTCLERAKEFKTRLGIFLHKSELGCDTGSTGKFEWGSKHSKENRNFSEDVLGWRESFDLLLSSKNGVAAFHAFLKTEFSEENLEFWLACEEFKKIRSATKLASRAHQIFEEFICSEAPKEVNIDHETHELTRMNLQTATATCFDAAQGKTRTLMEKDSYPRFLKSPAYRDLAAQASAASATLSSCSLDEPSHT
Target sequence (P09471 whole entry, looked up): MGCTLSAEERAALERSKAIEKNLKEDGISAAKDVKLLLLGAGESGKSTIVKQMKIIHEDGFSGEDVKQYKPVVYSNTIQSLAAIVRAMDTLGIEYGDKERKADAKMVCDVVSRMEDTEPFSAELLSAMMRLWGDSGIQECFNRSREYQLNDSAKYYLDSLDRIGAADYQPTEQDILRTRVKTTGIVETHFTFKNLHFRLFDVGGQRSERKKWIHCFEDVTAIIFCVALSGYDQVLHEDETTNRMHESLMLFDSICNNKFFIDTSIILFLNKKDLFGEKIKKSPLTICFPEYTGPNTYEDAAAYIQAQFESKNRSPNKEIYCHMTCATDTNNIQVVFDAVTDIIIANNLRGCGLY
HSV replic up = HSV replication enhancement; 0.005% of 220,000 active; maximum fold increase; AID 1956; HSV replication augmentation in cells, fold increase;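 active = peak rise of 1.5-fold or more in the series; inconclusive = self-fluorescent or not available for retest; tested in PC3 cells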;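 note: first round at 10 µM; read as green reporter fluorescence; hits show the peak of a series up to 25 µM; 1 = signal of infected wells without compound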
Insulin prom inh cell count = recorded beside Insulin prom inh, whose call it bears; normalized cell count, %; measured here: cell count, toxicity; reference of the scale not given here;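 cells exposed to compound for 48 h; stained nuclei by imaging scaled within each plate; lower means fewer cells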
HSV replic up primary fold = recorded beside HSV replic up, whose call it bears; fold increase; compound at 10 µM; measured here: primary screen fold increase 10 uM; tested in PC3 cells;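 GFP signal in the first replicate; 1 = infected wells without compound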
Active calls of the source: *; i = inactive; ? = inconclusive; nt = no result given.

SMILES | Insulin prom inh | Insulin prom inh cell count | GALR2 ag | PKD1 inh | RGS16-Gao HTS | HSV replic up | HSV replic up primary fold
O=C(ON=C1CCN(S(=O)(=O)c2ccccc2)CC1)c1cccc(Cl)c1 | 38 | 96 | -1.3 | 7 | 92 | i | 0.95
c1ccc(-c2nc(CSc3n[nH]c(-c4cccs4)n3)cs2)cc1 | -44 | 32 | -0.2 | -1 | 104 | i | 1.1
CN(C)C1=NCC(CSC(=N)N)S1 (stereo unspecified) | -67 | 144 | nt | -2 | 99 | i | 0.81
CC(c1ccccc1C(O)(c1ccccc1)c1ccccc1)N(C)C (stereo unspecified) | 17 | 87 | 1.4 | 1 | -43 | i | 0.88
CCOc1ccc(-c2noc(COC)n2)cc1OC | -181 | 85 | -3.0 | -3 | 100 | i | 0.99
O=C(Nc1ccccn1)NC1CCCCC1 | 34 | 78 | -0.9 | 4 | nt | i | 0.94
CN(C)c1cc[n+](CC(=O)Nc2ccc(Oc3ccccc3)cc2)cc1 | -3 | 98 | nt | -3 | 105 | i | 0.73
Cc1ccc(S(=O)(=O)N(CC(=O)N2CCC(C(N)=O)CC2)Cc2ccc(F)cc2)cc1 | 68 | 44 | 0.8 | 2 | 104 | i | 0.89
CCn1c(SCC(=O)Nc2ccc(C(C)=O)cc2)nc2ccccc21 | 57 | 176 | -3.1 | -6 | 108 | i | 0.95
N#Cc1ccc(N/N=C/c2ccccc2)c([N+](=O)[O-])c1 | nt | nt | nt | -6 | 98 | i | 0.85
CC(C)CC1=NC(C(F)(F)F)(C(F)(F)F)c2c(n(CC(C)C)c(=O)[nH]c2=O)N1 | nt | nt | -1.2 | 8 | 103 | i | 0.97
CN(C)S(=O)(=O)c1cccc(NC(=O)c2cc(-c3cccs3)nn2-c2ccccc2)c1 | -19 | 120 | -1.3 | 2 | 93 | i | 0.94
Cn1cnnc1SCC(=O)Nc1ccccc1C(=O)NC1CCCC1 | nt | nt | 0.5 | 0 | 83 | i | 0.97
COc1ccc(NC(=O)c2ccc(CNc3c(NC4CCCCC4)c(=O)c3=O)cc2)cc1OC | nt | nt | -0.1 | -6 | 97 | i | 0.87
O=C1NN(c2ccccc2)C(=O)/C1=C\c1coc2ccc(O)cc2c1=O | nt | nt | nt | nt | 93 | i | 1.2
Oc1ccc(N2CCN(c3nnnn3-c3ccccc3)CC2)cc1 | nt | nt | nt | -5 | 99 | i | 0.71
O=C(O)CNS(=O)(=O)c1ccc2[nH]c(=O)c(=O)[nH]c2c1 | nt | nt | nt | 7 | 106 | i | 1
Cc1cccc(-c2c3c(=O)n(C)c(=O)n(C)c3cn2CC2CCCO2)c1 (stereo unspecified) | -21 | 97 | -0.9 | -12 | 87 | i | 1
CCOC(=O)C1(C)NC(c2ccc(N(C)C)cc2)C2C(=O)N(c3ccc(OC)cc3)C(=O)C21 (stereo unspecified) | 0 | 81 | -1.5 | -9 | 98 | i | 0.91
O=C1CC(c2cc(Br)ccc2F)c2cc3c(cc2N1)CCC3 (stereo unspecified) | 27 | 88 | -2.1 | -18 | 99 | i | 0.64
Cc1onc(-c2c(F)cccc2Cl)c1C(=O)Nc1sc2c(c1C#N)CCC(C(C)(C)C)C2 (stereo unspecified) | -5 | 110 | -1.5 | -10 | 43 | i | 1.1
O=C(OCC1CC(c2ccccn2)=NO1)c1ccc(Br)cc1 (stereo unspecified) | nt | nt | 0.1 | 3 | 99 | i | 0.96
N#C/C(=N\Nc1ccc([N+](=O)[O-])cc1)C(=N)N1CCOCC1 | nt | nt | nt | nt | 111 | i | 0.85
C=CCn1c(SCC(N)=O)nnc1-c1cccc(Br)c1 | nt | nt | -1.9 | -4 | 103 | i | 0.97
Cc1cnc(NC(=O)c2ccncc2)s1 | nt | nt | nt | 4 | 103 | i | 1.1

(listing goes on)
SMILES | Insulin prom inh | Insulin prom inh cell count | GALR2 ag | PKD1 inh | RGS16-Gao HTS | HSV replic up | HSV replic up primary fold
c1ccc2c(c1)oc1c(Nc3ccc4c(c3)OCO4)ncnc12 | 15 | 116 | 0.4 | -11 | 98 | i | 1
Cc1nn2c(CN(C(=O)COc3ccccc3)c3ccccc3)nnc2c2ccccc12 | -52 | 86 | 0.8 | -11 | 105 | i | 0.99
CN(C)Cc1nc2ccccc2c(=O)n1CC(=O)Nc1cccc(S(=O)(=O)N2CCOCC2)c1 | -6 | 142 | nt | -6 | 92 | i | 1.1
C=CCN1C(=O)CC(C(=O)NC)SC1=Nc1ccc(C(=O)OCC)cc1 (stereo unspecified) | 0 | 97 | -0.2 | 1 | 103 | i | 0.92
CCOC(=O)c1c(C)n(O)c2ccc(Cl)cc2c1=O | 16 | 177 | -0.4 | -2 | 212 | i | 0.95
c1nc(NCCN2CCOCC2)c2c3c(sc2n1)CCCCC3 | 18 | 84 | 0.3 | 12 | 101 | i | 0.85
COc1cccc(C2CC(=O)Nc3cc4c(cc32)CCC4)c1 (stereo unspecified) | nt | nt | nt | 3 | 107 | i | 0.8
COC(=O)c1ccccc1NC(=O)c1noc2c1CC(C(C)(C)C)CC2 (stereo unspecified) | 10 | 36 | 3.8 | 0 | 105 | i | 0.87
Cc1ccc(S(=O)(=O)Oc2ccccc2/C=N/NC(=O)c2nn(C)cc2[N+](=O)[O-])cc1 | nt | nt | -1.8 | 1 | 101 | i | 1
O=C1CCCc2c1cc(C(=O)NCc1ccco1)c(=O)n2-c1ccccc1 | nt | nt | -0.2 | 52* | 98 | i | 0.91
COc1ccc(S(=O)(=O)N(C)Cc2cccs2)cc1Br | -77 | 113 | -2.4 | 6 | 165 | i | 0.97
CC(C)CC(O)(CC(C)C)C(=O)NNc1ccccc1 | -94 | 102 | -2.2 | -7 | 114 | i | 1
CCCn1c(N2CCN(CC(=O)c3c(C)n(C)c4ccccc34)CC2)nc2c1c(=O)[nH]c(=O)n2C | 12 | 94 | 0.7 | 6 | 112 | i | 0.79
COc1cccc(NC(=O)CSc2nc3ccccc3cc2Cc2ccccc2)c1 | -29 | 108 | -0.5 | 9 | 103 | i | 1.1
COc1ccccc1N1CCN(C2CCN(C(=O)c3cccs3)CC2)CC1 | 7 | 78 | -0.9 | -2 | 106 | i | 1.1
CS(=O)(=O)Oc1ccc(/C=N/NC(=O)c2ccncc2)cc1 | -41 | 84 | -3.6 | -13 | 107 | i | 0.89
CC(=NCc1ccncc1)C1=C(O)c2ccccc2C1=O | nt | nt | -2.3 | 2 | 167 | i | 0.8
C=CCn1c(SCc2ccccc2C#N)nnc1-c1cc(Br)ccc1O | -3 | 159 | -2.0 | -5 | 102 | i | 1.2
COc1ccc(N2C(=O)C3CCCN3C2c2cccc(C)c2)cc1Cl (stereo unspecified) | nt | nt | -2.3 | -8 | 102 | i | 0.84
O=C(CSc1nnnn1-c1ccccc1)N1CCc2ccccc2C1 | -31 | 138 | 1.5 | 11 | 98 | i | 0.93
O=C(NCc1cccnc1)C1CCN(c2ccc(S(=O)(=O)N3CCOCC3)cc2Cl)CC1 | nt | nt | nt | 0 | 105 | i | 0.99
C/C(CC(=O)Nc1ccc(Cl)cc1C(F)(F)F)=N\NC(N)=S | nt | nt | nt | nt | 114 | i | 0.75
CC1=C(C#N)C(=O)N(C2CCS(=O)(=O)C2)C(=O)/C1=C\c1ccc(C)o1 (stereo unspecified) | nt | nt | nt | nt | 88 | ? | nt
COc1cc(CO)cc(Br)c1OCC(=O)Nc1cccc2ccccc12 | nt | nt | nt | 0 | 102 | i | 0.96
COc1ccc(OC)c(-n2nnnc2SCC(=O)Nc2ccccc2N2CCOCC2)c1 | nt | nt | nt | -5 | 98 | i | 1.1

Some of the entries so far, with values under each structure.
Order of values – Insulin prom inh | Insulin prom inh cell count | GALR2 ag | PKD1 inh | RGS16-Gao HTS | HSV replic up | HSV replic up primary fold
- c1ccc2c(c1)oc1c(Nc3ccc4c(c3)OCO4)ncnc12
 : 15 | 116 | 0.4 | -11 | 98 | i | 1
- Cc1nn2c(CN(C(=O)COc3ccccc3)c3ccccc3)nnc2c2ccccc12
 : -52 | 86 | 0.8 | -11 | 105 | i | 0.99
- CN(C)Cc1nc2ccccc2c(=O)n1CC(=O)Nc1cccc(S(=O)(=O)N2CCOCC2)c1
 : -6 | 142 | nt | -6 | 92 | i | 1.1
- C=CCN1C(=O)CC(C(=O)NC)SC1=Nc1ccc(C(=O)OCC)cc1 (stereo unspecified)
 : 0 | 97 | -0.2 | 1 | 103 | i | 0.92
- CCOC(=O)c1c(C)n(O)c2ccc(Cl)cc2c1=O
 : 16 | 177 | -0.4 | -2 | 212 | i | 0.95
- c1nc(NCCN2CCOCC2)c2c3c(sc2n1)CCCCC3
 : 18 | 84 | 0.3 | 12 | 101 | i | 0.85
- COc1cccc(C2CC(=O)Nc3cc4c(cc32)CCC4)c1 (stereo unspecified)
 : nt | nt | nt | 3 | 107 | i | 0.8
- COC(=O)c1ccccc1NC(=O)c1noc2c1CC(C(C)(C)C)CC2 (stereo unspecified)
 : 10 | 36 | 3.8 | 0 | 105 | i | 0.87
- Cc1ccc(S(=O)(=O)Oc2ccccc2/C=N/NC(=O)c2nn(C)cc2[N+](=O)[O-])cc1
 : nt | nt | -1.8 | 1 | 101 | i | 1
- O=C1CCCc2c1cc(C(=O)NCc1ccco1)c(=O)n2-c1ccccc1
 : nt | nt | -0.2 | 52* | 98 | i | 0.91
- COc1ccc(S(=O)(=O)N(C)Cc2cccs2)cc1Br
 : -77 | 113 | -2.4 | 6 | 165 | i | 0.97
- CC(C)CC(O)(CC(C)C)C(=O)NNc1ccccc1
 : -94 | 102 | -2.2 | -7 | 114 | i | 1

Next part.
SMILES | Insulin prom inh | Insulin prom inh cell count | GALR2 ag | PKD1 inh | RGS16-Gao HTS | HSV replic up | HSV replic up primary fold
O=C(Nc1ccccc1Sc1ccccc1)c1ccccc1 | 0 | 142 | -1.8 | 2 | 100 | i | 1.1
COc1ccc(S(=O)(=O)N(CC(=O)NCc2cccnc2)Cc2ccccc2)cc1 | nt | nt | nt | -5 | 107 | i | 0.95
N#CC1=C(N)Oc2n[nH]c(-c3cccs3)c2C1c1ccccc1C(=O)O (stereo unspecified) | nt | nt | nt | 2 | 102 | i | 0.94
Fc1cccc(/C=N/Nc2ccc3ccccc3n2)c1 | nt | nt | nt | 1 | 104 | i | 0.9
O=C(N/N=C/c1ccc(OCc2ccccc2)cc1)c1cccs1 | 42 | 26 | -1.3 | -10 | 102 | i | 0.94
O=S(=O)(NCC1CCCO1)c1ccc(Oc2ccccc2)cc1 (stereo unspecified) | -5 | 124 | -1.2 | -9 | 75 | i | 1
O=C(/C=C/NCC(=O)c1ccccc1)c1ccc(Br)cc1 | nt | nt | -0.9 | -8 | 95 | i | 1
CC(C)Cn1c(-c2ccc(F)cc2)n[nH]c1=S | -13 | 68 | 0.0 | 8 | 103 | i | 0.97
O=C(CCc1nc2ccccc2c(=O)[nH]1)N1CCN(c2ccc(F)cc2)CC1 | 0 | 87 | nt | 1 | 98 | i | 0.84
CCCc1nnc(NC(=O)CCC(=O)NCc2ccc(OC)cc2)s1 | nt | nt | nt | nt | 87 | i | 1.3
C/C(=N\NC(=O)CN(c1ccc(C)cc1)S(C)(=O)=O)c1cccs1 | 0 | 109 | -1.2 | -5 | 103 | i | 0.93
COc1c(Br)cc2c(C)c(C(=O)O)oc2c1Br | 56 | 135 | -2.2 | -5 | 101 | i | 0.98
Cc1nc2ccc(C(=O)OCc3ccccc3Br)cc2nc1C | -55 | 99 | -1.4 | -2 | 102 | i | 1
COc1ccc(Br)cc1CN1CCCC(C(=O)N2CCCCCC2)C1 (stereo unspecified) | -69 | 74 | -2.2 | 7 | 114 | i | 0.73
c1cc2c(cc1C1=Nn3c(nnc3C3CCCCC3)SC1)OCO2 | -14 | 53 | 0.0 | -6 | 105 | i | 0.81
COc1ccc(/C=C/C(=O)Nc2ccc(-n3nncc3-c3ccccc3)cc2)cc1OC | nt | nt | -0.9 | 9 | 98 | nt | nt
C/C(N)=C(/C#N)C(=O)COC(=O)C1CCC(C(C)(C)C)CC1 (stereo unspecified) | -58 | 56 | -2.0 | 3 | 106 | i | 0.99
NC(=O)COC(=O)c1cccc(S(=O)(=O)N2CCCCC2)c1 | -11 | 146 | nt | -6 | 104 | i | 1.1
CSc1nnc(NC(=O)c2ccc(C)c(S(=O)(=O)N3CCOCC3)c2)s1 | 52 | 77 | -1.4 | -10 | 9.3* | i | 1.1
O=C(CN1CCCCCCC1)Nc1cccc(Cl)c1Cl | -41 | 123 | nt | 5 | 103 | i | 1.1
O=C(Nc1nnc(CC(c2ccccc2)c2ccccc2)s1)c1ccco1 | nt | nt | -1.1 | 1 | 102 | i | 0.89
CC1=NN(C(N)=S)C(=O)C1N=Nc1cccc2ccccc12 (stereo unspecified) | -50 | 79 | nt | -8 | 113 | i | 1
CCSc1nnc(NC(=O)c2cccc(S(=O)(=O)N(C)c3ccccc3)c2)s1 | 3 | 79 | 0.5 | -4 | 106 | i | 0.98
